# Screening results (PubChem BioAssay)
# Rango complex inh: prevents formation of the Rango-importin beta complex. Q14974. Rango CFP/YFP FRET sensor + importin beta, 45 min. Potency, µM (series often up to 92.2 µM), inactives show at the top dose inhibition of complex formation. 0.031% of 340,000 active. AID 540263; active = rising FRET ratio curve, often small or poorly fitted; inconclusive = mostly compound fluorescence or quenching in the first reads; inactive = flat curves in all reads;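 further: potency means the concentration at half of the fitted maximal effect; 0% = DMSO wells and 100% = buffer wells lacking importin beta; nearly all actives have a fitted effect of over 15% in size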
#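 FRET biosensor (snurportin 1 IBB flanked by EYFP and cerulean), 50 nM, with compound 5 min, then 0.125 microM importin beta in PBS, 1 mM DTT, 0.02% Tween-20, 0.1% BSA. CFP/YFP ratio read after 45 min at room temperature; pre-read flags interference.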
# Rango release inh: inhibition of RanGTP-driven Rango-importin beta dissociation. O95149+P62826. Biochemical FRET Rango-importin beta, RanGTP-induced dissociation. Potency, µM (top dose mostly 46.1 µM), without a hit: at the top dose activity change, negative = inhibition. 0.071% of 340,000 active. AID 540253; active means falling FRET ratio curve, often poorly fitted, with flat reads before Ran was added; inconclusive means other falling curves, or compound fluorescence or quenching; inactive means flat or rising ratio curve;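 further: potency means the concentration at half of the fitted maximal effect; % of control where 0% means no effect; nearly all actives have a fitted effect of over 45% in size; -100% = wells without RanGTP and RCC1; the record marks most hits as doubtful in a second field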
#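 Compounds preincubate 5 min with complex of recombinant Rango and importin beta in PBS with 1 mM DTT. Ran (0.6 uM) loaded with 2 mM GTP plus 0.2 uM RCC1 starts dissociation; FRET is recorded 45 min later.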
# miR-21 FLuc: miR-21 reporter, rising signal; HeLa miR-21 FLuc reporter, luciferase, 48 h; 340,000 tested, under 10 active; Potency, µM (top dose mostly 38.3 µM), for the others: at the highest dose reporter change, positive = more light; AID 2288; active = well fitted rising curve with a large enough effect; inconclusive = small, poorly fitted or top-dose-only effect; inactive = no such curve, though single readings can be large or run the other way;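 further: % of control where 0% means no effect; miR-21 action dims this reporter so a rising signal means less miR-21 action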
#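 HeLa miR-21-FLuc reporter line, endogenous miR-21; 2000 cells/well in DMEM/10% FBS; compound titration up to ~40uM final, 48 h, 37 degree Celsius; luciferase detection reagent, 15 min lysis, CCD luminescence.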
# GLA inh pH 4.5: inhibitors of human alpha-galactosidase A at pH 4.5; P06280; AID 1467; 230,000 tested, under 10 active; activity change, negative = inhibition, % at 105 µM; purified enzyme, 4-MU-alpha-Gal fluorescence, pH 4.5; inconclusive = small, poorly fitted or top-dose-only inhibition, or a rising curve; inactive = flat fitted curve, though single readings scatter; no compound was filed as active;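 further: 0% = full activity with enzyme and -100% = basal without enzyme; dose as in the result columns while the protocol names 77 µM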
# Target sequence (P06280 whole entry, looked up): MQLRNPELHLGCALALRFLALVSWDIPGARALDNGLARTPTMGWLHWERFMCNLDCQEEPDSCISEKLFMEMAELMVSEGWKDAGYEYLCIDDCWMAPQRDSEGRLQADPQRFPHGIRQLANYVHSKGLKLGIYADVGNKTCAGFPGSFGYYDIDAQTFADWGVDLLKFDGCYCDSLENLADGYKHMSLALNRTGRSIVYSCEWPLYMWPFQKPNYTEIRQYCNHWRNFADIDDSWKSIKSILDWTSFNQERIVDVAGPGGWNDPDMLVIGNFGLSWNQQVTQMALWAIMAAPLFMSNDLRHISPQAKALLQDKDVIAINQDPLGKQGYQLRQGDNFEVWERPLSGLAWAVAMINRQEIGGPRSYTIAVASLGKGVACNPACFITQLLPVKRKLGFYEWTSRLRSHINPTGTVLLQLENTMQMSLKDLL
# * hit, by the source's call; ? = inconclusive; · = not tested or not shown; & = joins results of further samples; [ ] = dose if it differs, or a comment. A portion of the library; rates above refer to the full screens.
Rango complex inh	Rango release inh	miR-21 FLuc	structure	GLA inh pH 4.5
-1.8%	0%	18%	Cc1cc(S(=O)(=O)Nc2ccc(C(=O)N3CCN(c4ccccc4O)CC3)cc2)ccc1F	·
-4.4%	-10%	-13%	COc1ccc(Nc2ncnc3sc(-c4ccccc4)cc23)cc1	3
4.3%	27%	0%	CC(=O)c1cccc(NC(=O)CCNC(=O)c2cccc(C)c2)c1	·
-0.8%	31%	-1%	Cc1cc(C)n(C(=O)Cn2nc([N+](=O)[O-])c(Br)c2C)n1	2
-2.2%	-20%	0%	Cn1c(CNC(=O)CNC(=O)c2ccc(F)cc2)cc(=O)n(C)c1=O	·
-1.7%	-14%	0%	O=C(CN1C(=O)/C(=C/c2ccccc2)SC1=S)NNC(=O)c1ccccc1O	-3
-0.6%	10%	-2%	O=C(Nc1cccc(NC(=O)c2cccs2)c1)c1ccc(Br)o1	·
?	-15%	17%	COc1ccc(/C=C/C(=O)c2ccc(NS(=O)(=O)c3ccc(C)cc3)cc2)cc1O	-14

# Fetched by compound from the entries so far:
Rango complex inh	Rango release inh	miR-21 FLuc	structure	GLA inh pH 4.5
?	-15%	17%	COc1ccc(/C=C/C(=O)c2ccc(NS(=O)(=O)c3ccc(C)cc3)cc2)cc1O	-14
-4.4%	-10%	-13%	COc1ccc(Nc2ncnc3sc(-c4ccccc4)cc23)cc1	3
-0.6%	10%	-2%	O=C(Nc1cccc(NC(=O)c2cccs2)c1)c1ccc(Br)o1	·
4.3%	27%	0%	CC(=O)c1cccc(NC(=O)CCNC(=O)c2cccc(C)c2)c1	·

# New compounds follow:
Rango complex inh	Rango release inh	miR-21 FLuc	structure	GLA inh pH 4.5
-2.4%	9%	-7%	CN(C)/C=N/c1sc2c(c1C#N)CC(C)(C)NC2(C)C	-4
-0.5%	-6%	·	O=C(COC(=O)C1CCCC1)Nc1ncc(Cl)cc1Cl	·
0.9%	1%	·	O=S(=O)(c1ccc(OCc2ccc(Br)cc2)cc1)N1CCOCC1	·
3.8%	-10%	-9%	Cc1cc(C)nc(SCc2cc(=O)c(OC(=O)c3cc([N+](=O)[O-])ccc3Cl)co2)n1	6
3.3%	6%	2%	CCCC12CN(C(=O)c3ccc([N+](=O)[O-])cc3)CC(C)(CN(C(=O)c3ccc([N+](=O)[O-])cc3)C1)C2=O	6
-5.6%	-2%	-6%	CC1CC(C)CN(C(=O)CCNC(=O)Cn2ccc3ccccc3c2=O)C1 (centres undefined)	·
-1.5%	2%	1%	Cc1ccccc1OCC(=O)N/N=C/C=C/c1ccccc1	4
1.0%	-11%	-5%	COc1cc(OC)cc(C(=O)NCC(=O)OCC(=O)Nc2cc(S(C)(=O)=O)ccc2Cl)c1	-1

# Part of the list above in order of number of heavy atoms, lowest first.
Rango complex inh	Rango release inh	miR-21 FLuc	structure	GLA inh pH 4.5
-2.4%	9%	-7%	CN(C)/C=N/c1sc2c(c1C#N)CC(C)(C)NC2(C)C	-4
-5.6%	-2%	-6%	CC1CC(C)CN(C(=O)CCNC(=O)Cn2ccc3ccccc3c2=O)C1 (centres undefined)	·
3.8%	-10%	-9%	Cc1cc(C)nc(SCc2cc(=O)c(OC(=O)c3cc([N+](=O)[O-])ccc3Cl)co2)n1	6
3.3%	6%	2%	CCCC12CN(C(=O)c3ccc([N+](=O)[O-])cc3)CC(C)(CN(C(=O)c3ccc([N+](=O)[O-])cc3)C1)C2=O	6

# Other entries.
Rango complex inh	Rango release inh	miR-21 FLuc	structure	GLA inh pH 4.5
-0.9%	8%	·	CC(C)(C)OC(=O)C[C@@H]1C/C=C\C[C@@H](CC(=O)N[C@H](CO)Cc2ccccc2)C(=O)NC[C@H](c2ccccc2)OC1=O	·
-2.5%	3%	-2%	CCCCCCCCCC(=O)N1CCN(c2cc3c(cc2F)c(=O)c(C(=O)O)cn3CC)CC1	·
-0.2%	-23%	-36%	COc1cccc(NC(=O)c2ccc(C(=O)c3ccccc3)o2)c1	-10
0.5%	-10%	-2%	Cc1ccccc1CC(=O)Nc1ccc(S(=O)(=O)N2CCOCC2)cc1	·
-4.0%	1%	·	CC(CNC(=O)CN1C(=O)C(=O)N(C2CCCC2)C1=O)c1ccccc1 (centres undefined)	·
-0.2%	20%	·	COc1cc2c(cc1OC)CN(C(=O)CN1C(=O)NC3(CCC(C)CC3)C1=O)CC2 (centres undefined)	·
1.6%	-4%	21%	COc1ccc(OC)c(NC(=O)CSc2nnnn2-c2ccc3c(c2)OCO3)c1	-10
-3.2%	9%	16%	C/C(CC(=O)Nc1ccc(Cl)c(C(F)(F)F)c1)=N\NC(=O)c1cnccn1	·

Rango complex inh	Rango release inh	miR-21 FLuc	structure	GLA inh pH 4.5
1.9%	-7%	-4%	CN(CCC1CCOCC1)Cc1nc(Cc2ccccc2F)no1	6
-0.3%	3%	-1%	CC(=O)NCCC(=O)Nc1cc(S(=O)(=O)N2CCOCC2)ccc1Oc1ccccc1	·
-1.1%	-6%	5%	COc1cccc(/C=C2\SC(=S)N(CCC(=O)NC3C=CS(=O)(=O)C3)C2=O)c1 (centres undefined)	·
1.7%	13%	-6%	CC(C)C(C(=O)Nc1ccc(N2CCOCC2)cc1)N1C(=O)c2ccccc2C1=O (centres undefined)	11
-2.6%	19%	-3%	NC(=O)C1CC(=O)N(c2ccc(OCc3c(F)cccc3Cl)cc2)C1 (centres undefined)	-7
-0.4%	15%	·	CC(=O)c1cc(F)ccc1OCC(=O)Nc1ccc2c(c1)OCO2	·
-3.7%	0%	3%	COc1cc(OC)cc(C(=O)N[C@H](C(=O)NCCc2c[nH]c3ccccc23)C(C)C)c1	6
4.4%	2%	-10%	Cc1ccccc1OCC(=O)Nc1ccccc1N1CCOCC1	-5

Rango complex inh	Rango release inh	miR-21 FLuc	structure	GLA inh pH 4.5
0.3%	0%	11%	Cc1ccc(S(=O)(=O)Nc2ccc(O)c3ccccc23)c(C)c1	·
-1.4%	0%	-8%	CC(C)(C)n1nnnc1C(c1ccncc1)N1CCN(c2ccc(O)cc2)CC1 (centres undefined)	-2
-1.8%	1%	2%	CCOC(=O)C1(CCOc2ccccc2)CCN(CC(O)CO)CC1 (centres undefined)	·
-0.2%	-3%	0%	CCOc1ccc(CN2CCNC(=O)C2CC(=O)NCCc2nc(C)c3c(n2)CCC3)cc1 (centres undefined)	·
-0.1%	-7%	-2%&-22%	COC(=O)c1cc(NC(=O)Cn2nc(C)n3cccc3c2=O)cc(C(=O)OC)c1	·
3.0%	32%	-4%	CN(C)c1nc2c(c(=O)[nH]c(=O)n2C)n1Cc1ccc(F)cc1	-3
-6.4%	14%	2%	COC(=O)c1c(NC(=O)Cc2ccccc2)sc2c1CCN(C(C)C)C2	·
4.8%	3%	0%	Cn1ccc(O)c(C#N)c1=O	-3&3

Rango complex inh	Rango release inh	miR-21 FLuc	structure	GLA inh pH 4.5
3.4%	0%	?	CNC[C@H](CC1CCCCC1)NC[C@H](CO)NCCc1cccc(C(F)(F)F)c1	·
-0.3%	-1%	2%	CC(=O)OC(COC1C[C@@H]2CC[C@@]1(C)C2(C)C)C[N+]1(C)CCCCC1 (some centres undefined)	12
4.2%	2%	-10%	Cc1ccc2cc(C(c3nnnn3CC3CCCO3)N3CCc4ccccc4C3)c(=O)[nH]c2c1 (centres undefined)	-5
-0.1%	0%	·	COc1ccc(OC)c(-c2nnc3n2N=C(c2ccc(OC)c(OC4CCCC4)c2)CS3)c1	·
-3.0%	-1%	-4%	COc1cccc(CC(=O)NCC2(N3CCCCC3)CCCCC2)c1	-3
4.2%	8%	-2%	CCN1C(=O)CC(N2CCC(Cc3ccccc3)CC2)C1=O (centres undefined)	2
0.6%	17%	-8%	CCOC(=O)C1=NNC(C(=O)c2ccc(C)cc2)C1c1ccc(OC)cc1 (centres undefined)	-7
0.5%	-18%	-1%	COc1ccc(C2CC3(CC(C)(C)NC(SC)=N3)Oc3cc(O)cc(C)c32)cc1 (centres undefined)	-4

Rango complex inh	Rango release inh	miR-21 FLuc	structure	GLA inh pH 4.5
?	20%	-2%	CCN(CCNC(=O)Cn1cc2c(n1)CCCC2)c1ccccc1	5
5.1%	2%	-30%	C=CCn1c(SCc2ccc(C(=O)NCCO)cc2)nc2sc(C)c(C)c2c1=O	-25[21.1 µM]
-2.1%	-11%	-2%	Cc1cc(C)c(C#N)c(N2CCN(S(=O)(=O)Cc3ccccc3)CC2)n1	·
-0.7%	11%	-22%	COc1ccc(-c2noc(C3CCCN(C(=O)c4ccccc4OC)C3)n2)cc1OC (centres undefined)	-5
-0.6%	-11%	2%	O=C(Nc1ccc(S(=O)(=O)N2CCCC2)cc1)c1c(F)cccc1F	·
0.2%	9%	-5%	O=C(NCc1ccc2c(c1)OCO2)c1cccc(N2CCCC2=O)c1	-9
-0.1%	-10%	·	COC(=O)CCC(=O)N(CCN(Cc1ccccc1)C(=O)CCC(=O)OC)Cc1ccccc1	·
-0.1%	6%	-21%	COc1cccc(Cn2cnc3c(sc4nc(C)cc(C)c43)c2=O)c1	·

Rango complex inh	Rango release inh	miR-21 FLuc	structure	GLA inh pH 4.5
1.1%	?	0%	COc1cc(OC)cc(C(=O)N2CCN(C(=O)c3cccs3)CC2)c1	·
0.5%	2%	-9%	CC(C)Oc1ccc(C(=O)Nc2ccc(C(F)(F)F)n(C)c2=O)cc1	3
-2.1%	-16%	·	Cc1cc(C(=O)COC(=O)c2ccccc2O)c(C)n1CC1CCCO1 (centres undefined)	·
5.2%	-18%	-8%	O=C(Nc1ccc(Cl)cc1)N(Cc1nnc2n1CCCCC2)c1ccccc1	-6
-5.4%	-21%	·	CC(=O)Nc1ccc(C(=O)CN2C(=O)NC3(CCOc4ccccc43)C2=O)c(F)c1 (centres undefined)	·
?	-23%	-53%	O=C(O)c1cc(N/N=C/c2c[nH]c3ccccc23)ccc1Cl	·
4.3%	20%	0%	COc1cccc(NC(=O)[C@@H](NC(=O)N2CCn3c2nc2ccccc23)C(C)C)c1	·
-0.2%	3%	2%	CCOC(=O)C1=C(C)Nc2nc3ccccc3n2C1c1ccncc1 (centres undefined)	5

Rango complex inh	Rango release inh	miR-21 FLuc	structure	GLA inh pH 4.5
-0.5%	?	-16%	Cc1ccc(S(=O)(=O)Cn2nnnc2C(C(C)C)N2CCc3ccccc3C2)cc1 (centres undefined)	-1
-1.2%	-8%	-2%	O=C(CN1C(=O)NC(Cc2ccccc2)C1=O)NC(=O)NC1CCCCC1 (centres undefined)	3
-2.2%	1%	-3%	O=C1NC(=O)C(CC(=O)N(Cc2cccs2)C2(C(=O)NC3CCCCC3)CCCCC2)N1 (centres undefined)	-3
0.0%	4%	0%	COc1ccc(C(=O)NC2CC3CCCC(C2)N3Cc2ccccc2)cc1OC (centres undefined)	·
-0.9%	-6%	14%	Cc1nn(CC(=O)NC(C)CCc2ccccc2)c(=O)c2nn(-c3ccccc3)c(C)c12 (centres undefined)	·
-0.1%	-3%	-7%	Cc1ccc(Cl)cc1N1CCN(C(c2cccnc2)c2nnnn2C2CCCCC2)CC1 (centres undefined)	7
2.5%	0%	-12%	O=C(/C=C/c1ccccc1)N1CCC[C@H]1CO	5
0.8%	0%	-4%	COCc1nnc(NC(=O)c2ccc(S(=O)(=O)N3CCCCCC3)cc2)o1	3

Rango complex inh	Rango release inh	miR-21 FLuc	structure	GLA inh pH 4.5
0.5%	-17%	20%	O=C(/C=C/c1ccc(Cl)cc1)NC(=S)Nc1ccc(NC(=O)c2ccco2)cc1	4
0.6%	-10%	-1%	Cn1cc(S(=O)(=O)Oc2ccccc2)c(=O)n(C)c1=O	7
-3.1%	4%	3%	Cc1cc(CNCc2c(C(=O)N3CCCCCCC3)nc3ccc(Cl)cn23)nn1C	1
5.2%	11%	-5%	O=C(O)C1CCCCC1C(=O)Nc1ccccn1 (centres undefined)	3
0.0%	-9%	-1%	O=C(O)c1cc(O)ccc1-c1ccc(O)cc1	-6
?	-11%	-7%	CC1CCN(CC(O)COCCC23CC4CC(CC(C4)C2)C3)CC1 (centres undefined)	-9
-0.5%	2%	9%	COc1ccc(NC(=O)C2CC(c3cc(OC)c(OC)c(OC)c3)=NO2)cc1OC (centres undefined)	-14

# Taken from above:
# Reading for CC1CCN(CC(O)COCCC23CC4CC(CC(C4)C2)C3)CC1 (centres undefined) in miR-21 FLuc: -7%
# Reading for O=C(O)C1CCCCC1C(=O)Nc1ccccn1 (centres undefined) in Rango release inh: 11%
